AID504770 – growth inhibitors of E. coli YBA685 in a screen for V. cholerae RctB (chromosome II replication) inhibitors | E. coli YBA685 rctB-dependent plasmid, OD600 growth, 3 h; stronger effect = lower value | z-score (concentration not given with the values) | hit rate 0.27% among 130,000 | AID 504770;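 active = z-score under -2 on both plates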;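 also: wells of about 30 µL received 100 nL stock; score is relative to mean and SD of the test wells; the first replicate is given; strong numbers were not always called active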
Ba CapD inh – CapD enzyme inhibition; z-score (test concentration not listed); purified CapD enzyme, fluorescence intensity read-out; stronger effect = lower value; some hits fall short of the stated cut; AID 492967; hit rate 0.23% among 140,000;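 active = z-score under -4 in either of two replicates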;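 also: stock transfer was 100 nL into about 40 µL; score is relative to mean and spread of the plate; one replicate is shown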
Active calls of the source: *; i = inactive; nt = no result given.

Values run as follows: AID504770 | Ba CapD inh
> CCOc1ccccc1CNC(=O)Cn1c(C)c2cnn(-c3ccccc3)c(=O)c2c1C
  -0.2 | -0.43
> Cc1cc2nc(C(F)(F)F)n3c4ccccc4nc3n2n1
  0.65 | 0.38
> S=c1[nH]nc(CN2CCCCCC2)n1-c1ccccc1
  1.9 | -0.22
> COc1ccc2[nH]c(-c3ccccc3)cc(=O)c2c1
  0.2 | 64
> COC(=O)c1ccccc1Nc1nc(C)cc(C)n1
  nt | 90
> CSc1nc(N)c2c3c(sc2n1)CCC3
  -0.65 | 1.9
> Cc1[nH]c2ccc(C(=O)N3CCCC3)cc2c1C
  -0.2 | -1.2
> N#Cc1c2c(c(NC3CCCC3)n3c1nc1ccccc13)CCC2
  0.3 | nt
> Cc1cc(C)n(-c2ccc(C(=O)Oc3ccc4oc5c(c4c3)CCCC5)cc2)n1
  0 | nt
> O=C1Nc2ccccc2SC1CC(=O)N1CCN(c2ccc(C(F)(F)F)cn2)CC1 (stereo not given)
  -0.65 | nt
> CN(C)c1ccncc1C(O)C(F)(F)F (stereo not given)
  0.2 | -0.52
> CCOCCc1c(O)nc(SCC(=O)NC(C)c2ccccc2)[nH]c1=O (stereo not given)
  -0.85 | nt
> O/N=C(/c1ccccn1)C1CCCCC1
  0 | 0.35
> CC(C)N(Cc1ccccc1)C(=O)N(C)C
  -0.25 | -0.04
> Cc1oc(-c2ccccc2Cl)nc1CSc1nnc(C)n2c1cc1occc12
  0 | 0.1
> C=C(C)CN(CC)C(=O)CSc1ncnc2ccccc12
  1.5 | nt
> Cc1ccc(F)cc1NC(=O)c1sc2ncn(CC(=O)Nc3cccc(C(F)(F)F)c3)c(=O)c2c1C
  nt | 0.035
> Cc1ccc(S(=O)(=O)N(C2CC2)C2CCN(Cc3ccccc3)CC2)cc1
  nt | -0.24
> COC(=O)c1cc(S(=O)(=O)N(C)CC2COc3ccccc3O2)cn1C (stereo not given)
  0 | 0.41
> O=C(C1Cc2ccccc2CN1S(=O)(=O)c1ccc(F)cc1)N1CCCCC1 (stereo not given)
  0.7 | nt
> CCOC(=O)COc1ccc2c3c(c(=O)oc2c1)CCCC3
  nt | 40
> CCCCn1c(O)c(C#N)c(C)c(N=Nc2ccc(OC)cc2)c1=O
  -0.95 | -0.26
> O=C(N/N=C/c1c(Cl)cccc1Cl)c1ccc(C(F)(F)F)cc1
  nt | 0.65
> CCOc1ccc(NC(=O)CN(Cc2ccccc2)S(=O)(=O)c2ccc(C)cc2)cc1
  0.35 | -0.22
> O=C(CSc1cnccc1C(F)(F)F)NCc1ccc(Cl)cc1
  nt | 0.03
> Cc1ccc(CNC(=O)[C@@H](c2ccccc2)N2Cc3ccccc3C2=O)cc1
  0.2 | 0.42
> CC1(C)CC(=O)c2sc3nc(-c4ccc(Br)cc4)cn3c2C1
  -0.1 | -0.045
> CCC(=O)Nc1c2c(nn1-c1ccccc1)CS(=O)C2 (stereo not given)
  1.7 | nt
> CN(C)c1ccc(/C=N/n2c(=O)[nH][nH]c2=O)cc1
  -0.8 | 11
> Cc1ccc(C)n1NC(=O)c1ccc(Cl)cc1
  2.4 | -0.05
> CC(C)OC(=O)C(C)Nc1ccc(F)c(Cl)c1 (stereo not given)
  -0.75 | 0.18
> COCCCn1c(=O)c2ccccc2n(CC(=O)NC2CCCC2)c1=O
  0.2 | nt
> COC(=O)c1cccc(N2C(=O)/C(=C/c3ccc(OC)cc3)C=C2c2ccccc2)c1
  nt | 0.98
> Cc1nn(Cc2nnc(-c3cc(C(F)(F)F)cc(C(F)(F)F)c3)o2)c(C)c1Br
  -0.85 | 0.33
> Nc1c(-c2n[nH]c(=S)n2-c2ccc(Cl)cc2Cl)cnn1-c1ccccc1
  0.05 | 0.24
> Cc1cccc(C(=O)OC2CCCN(C)C2)c1C (stereo not given)
  -1.3 | -1.4
> COc1ccccc1N1CCN(CCCNC(=O)Cn2cnc3onc(C)c3c2=O)CC1
  -1.2 | 0.33
> COc1ccccc1NC(=O)c1ccc(N2CC3CC(C2)c2cccc(=O)n2C3)c(NC(=O)c2cccnc2)c1 (stereo not given)
  0.25 | 0.075
> CC(NC(=O)CSc1nncn1C)c1ccccc1 (stereo not given)
  0.75 | 0.31
> CCn1c(C(=O)O)c(CNCc2cccs2)c2ccc(C)cc21
  0.1 | 2.8
> CCCc1nc(N)c(C#N)c(-c2ccccc2)c1CC
  0.1 | -0.15
> CNCc1ccc(C(C)(C)C)cc1
  -1 | nt
> CCN(CC)CCNCc1cccs1
  -0.8 | nt
> Cc1cc(C(=O)N(C)Cc2ccc(Br)cc2)no1
  0.5 | nt
> O/N=C(/c1ncon1)N1CCN(c2ccccc2)CC1
  -0.85 | -0.1
> CC1CN(C(=O)C2CCCN2S(=O)(=O)c2cccc3nsnc23)CC(C)O1 (stereo not given)
  0.1 | nt
> CCOC(=O)CSc1nnc(Nc2ccccc2OC)s1
  -0.2 | nt
> Cc1cc(N)cc2[nH]c(-c3ccc(N)cc3)nc12
  0.8 | 66
> CN(C)CC(=O)N1c2ccccc2CCc2ccc(NC(=O)c3ccccc3)cc21
  nt | 5.9
> CC(C)NC(=O)CN1CCN(Cc2ccc(OC(F)(F)C(F)C(F)(F)F)cc2)CC1 (stereo not given)
  -0.5 | nt
> O=[n+]1c(CO)c(CO)n([O-])c2ccccc21
  -8.7* | 0.17
> NC(=O)c1c(N)n(-c2cccc(F)c2)c2nc3ccccc3nc12
  1 | nt
> CS(=N)(=O)CC[C@H](N)C(=O)O (stereo not given in full)
  nt | 0.095
> O=S(=O)(CS(=O)(=O)NCc1cccs1)NCc1cccs1
  0.9 | -0.31
> CC(C)C(=O)Nc1ncc(Cc2ccc(Cl)cc2)s1
  -0.25 | i
> CCOC(=O)CSc1nc(Nc2ccc(OC)cc2)c2cnc(N(CC)CC)nc2n1
  2.2 | 0.92
> CCOC(=O)C1=C(C)N=c2s/c(=C\c3ccc(O)c(OC)c3)c(=O)n2C1c1ccc(OC)c(OC)c1 (stereo not given)
  nt | -0.13
> O=C(/C=C/c1ccco1)NC(=S)Nc1ccc(Cl)cc1
  -0.05 | -1.4
> CCOC(=O)C1=CN(Cc2ccc(F)cc2)C=C(C(=O)OCC)C1c1cc(Br)c(O)c(OCC)c1
  nt | 31
> O=C(Cc1cccc2ccccc12)Nc1cccc(C(=O)N2CCOCC2)c1
  -0.15 | 0.63

Reprinted at random: five entries already listed, in no set order.
Values run as follows: AID504770 | Ba CapD inh
> O=C(/C=C/c1ccco1)NC(=S)Nc1ccc(Cl)cc1
  -0.05 | -1.4
> COC(=O)c1cccc(N2C(=O)/C(=C/c3ccc(OC)cc3)C=C2c2ccccc2)c1
  nt | 0.98
> CN(C)CC(=O)N1c2ccccc2CCc2ccc(NC(=O)c3ccccc3)cc21
  nt | 5.9
> Cc1nn(Cc2nnc(-c3cc(C(F)(F)F)cc(C(F)(F)F)c3)o2)c(C)c1Br
  -0.85 | 0.33
> CCOC(=O)C1=C(C)N=c2s/c(=C\c3ccc(O)c(OC)c3)c(=O)n2C1c1ccc(OC)c(OC)c1 (stereo not given)
  nt | -0.13

Further compounds follow.
Values run as follows: AID504770 | Ba CapD inh
> CC(C)(C)C(=O)CSc1nc(-c2cccnc2)c(C#N)c(=O)[nH]1
  0.4 | -0.02
> COc1ccc(OC)c(N(CC(=O)NCCSc2ccc(Cl)cc2)S(=O)(=O)c2ccccc2)c1
  nt | -0.15
> N=c1n(CC(=O)c2ccco2)c2ccccc2n1Cc1ccccc1
  -0.45 | 9
> COCCN1Cc2cccc(C(=O)NC(C)CCc3ccco3)c2C1=O (stereo not given)
  -0.25 | -0.67
> CC(C)(C)OC(=O)n1ccc2cc(Br)ccc21
  -0.55 | -0.28
> O=C(Oc1cc(Cl)cc(Cl)c1)c1cccc(C(F)(F)F)n1
  0.85 | 0.93
> C[N+]12CCCCC1C(CN1C(=O)c3ccccc3C1=O)CCC2 (stereo not given)
  -0.2 | 0.01
> COc1ccc(OC)c(CN2CCN(C(=O)c3cc(S(=O)(=O)N4CCOCC4)ccc3Cl)CC2)c1
  0.2 | nt
> Cc1ccccc1CCN1C(=O)CCC1(C)C(=O)N1CCCC1 (stereo not given)
  -0.05 | -0.82
> CCC(=O)Nc1cccc(C(=O)N/N=C/c2ccccc2)c1
  nt | -1
> CCn1c(O)c(C=NCC2CCCCC2)c(=O)n(CC)c1=S
  0.85 | nt
> Cc1nc2ccccc2nc1OCc1cc(=O)n2cc(Br)ccc2n1
  -0.6 | nt
> CCc1ccc(N/C(SCc2ccc(Cl)cc2)=C(/C#N)C(=O)NCc2ccco2)cc1
  nt | 43
> CC1(C)Cc2ccccc2C(CSc2nc(-c3ccco3)cc(C(F)(F)F)n2)=N1
  0.1 | 2
> COc1ccc(-c2coc3cc4oc(=O)c(CC(=O)O)c(C)c4cc23)cc1
  2.9 | 0.36
> N#Cc1c(C(F)(F)F)cc(-c2cccs2)nc1S/C=C/C(=O)c1ccccc1
  0.1 | 1.7
> CC1CC(=O)N(c2cc(C(F)(F)F)cc(C(F)(F)F)c2)C(=O)C1
  nt | 0.73
> CCN(CC)S(=O)(=O)c1cc(C(=O)NC(C)(C)C)ccc1Cl
  -0.35 | -0.75
> O=S1(=O)CCN(Cc2ccc(Cl)c(Cl)c2)CC1
  -0.2 | 0.65
> CCSC1=C(C#N)C(c2ccccc2)C(C(=O)Nc2ccccc2OC)=C(C)N1 (stereo not given)
  nt | 6.9
> CC(C)CN(CC(C)C)C(=O)c1cc(-c2ccc(Cl)cc2)n[nH]1
  -0.6 | 0.54
> Cc1nn2c(=O)cc(CSc3nc4ccc(NC(=O)c5ccco5)cc4s3)nc2s1
  0.35 | 1.5
> CC(C)c1cccc2c1OC(C(C)C)C(=O)N2 (stereo not given)
  -0.2 | -0.015
> CCSCCOC(=O)C1=C(C)NC2=C(C(=O)CC(C)(C)C2)C1c1coc2ccccc2c1=O (stereo not given)
  nt | -1.1
> CCOC(=O)N1CCC(NC(=O)CCCC(=O)O)CC1
  2 | 0.39
> C=CCNC(=S)N(C)C1CCS(=O)(=O)C1 (stereo not given)
  1.6 | 0.15
> N#CNC(=NC1CCCCC1)NC1CCCCC1
  0.5 | 0.84
> CCN(CC)C(=O)CCn1c(=O)oc2ccccc21
  0.15 | -0.24
> Cc1nn(-c2ccccc2)c(N)c1C(NC(=O)c1ccccc1)(C(F)(F)F)C(F)(F)F
  0.4 | 35
> O=C(Nc1ccc2c(c1)Nc1ccccc1CC2)c1ccccc1
  nt | 5.8
> COc1nc(NCC2CCCO2)nc(N2CC3CC(C2)c2cccc(=O)n2C3)n1 (stereo not given)
  1.1 | 2.7
> Cc1c(C(=O)N(C)C)sc2[nH]c(=O)n(-c3ccccc3C(F)(F)F)c(=O)c12
  -0.15 | 9.1
> OCCNc1nc(-c2ccccc2)c2cc(Br)ccc2n1
  nt | 0.32
> C/C(=C\c1ccccc1)C(=O)NC1CCCC1
  -0.15 | 0.26
> CN(CC(=O)Nc1ccc(Cl)c(C(F)(F)F)c1)c1ccc(S(=O)(=O)N2CCCCC2)cn1
  0.7 | nt
> O=c1c(-c2cccc(C(F)(F)F)c2)[n+]([O-])c2ccccc2n1O
  -0.8 | -2.4
> Cc1ccc(CN2C(=O)CSc3ccc(NC(=O)NCCC4=CCCCC4)cc32)cc1
  0.15 | -0.29
> O=C(/C=C/c1ccc(C(F)(F)F)cc1)OC1CCCCC1=O (stereo not given)
  0.5 | nt
> CCCNC(=O)c1ccc(C2SCCCS2)cc1
  -0.35 | nt
> CC(C)c1ccc(/C=C\C(=O)O)cc1
  -0.1 | -0.44
> CCCN(CCC)C(=O)Cn1nnc2sc3c(c2c1=O)CCCC3
  -0.25 | 1.5
> CC[C@H]1C2CC3[C@@H]4N(C)c5ccccc5[C@]45C[C@@H](C2C5O)N3[C@@H]1O (stereo not given in full)
  1.1 | nt
> O=C(Cc1ccccc1)NC1CCN(S(=O)(=O)c2ccc(Cl)cc2)CC1
  nt | -0.17
> O=C(Cn1cccc1C(=O)c1ccccc1)NCCCN1CCN(C2CCCCC2)CC1
  -3 | -0.39
> NC(N)=N/N=C/c1cn(-c2ccccc2)nc1-c1ccccc1
  -1.1 | nt
> O=C1CSC(c2cccnc2)N1c1ccc(Cl)c(Cl)c1 (stereo not given)
  nt | 0.37
> N=c1scc(-c2ccccc2)n1-c1cccc(Cl)c1Cl
  nt | 0.85
> Cc1ccc(S(=O)(=O)NC(C)(C)C)cc1
  0.1 | -0.06
> COc1ccc(CN2CCC(C(=O)NC3CCCC3)CC2)cc1
  1.4 | nt
> CCN1CCN(Cc2c(O)ccc3c(=O)c(Oc4cc(C)cc(C)c4)c(C(F)(F)F)oc23)CC1
  nt | -0.33
> CC(C)(C)C(=O)Nc1c2c(nn1-c1cccc(Cl)c1)CS(=O)C2 (stereo not given)
  nt | -0.14
> COc1cccc(NC(=S)NNc2ccccc2)c1
  nt | -1.1
> Cc1nc2c(C(=O)NCCC(C)C)c[nH]n2c(=O)c1Cl
  0.25 | 0.84
> CCCCC(=O)Nc1ccc(NC(=O)C2CC2)nc1
  -0.05 | nt
> Cc1cc2n(n1)C(O)(C(F)(F)F)CC(O)(C(F)(F)F)N2 (stereo not given)
  -0.6 | 0.035
> Cn1c(O)c(/C=N/C(N)=S)c(=O)n(C)c1=O
  -0.55 | nt
> Cn1nccc1NS(=O)(=O)c1ccccc1
  1.5 | -0.5
> COc1ccc(/C=C/C(=O)O)cc1S(=O)(=O)N1CCCCC1
  -0.5 | -0.34
> O=c1oc2ccccc2n1CN1CCN(Cc2ccccc2)CC1
  -0.25 | nt
> COc1ccc(/C=C2\SC(=O)N(CCC(=O)Nc3c(C)n(C)n(-c4ccccc4)c3=O)C2=O)cc1
  nt | -0.21

Additional compounds follow.
Values run as follows: AID504770 | Ba CapD inh
> CC(C)(C)NC(=O)NC(=O)CN1CCCCCCC1
  0.65 | nt
> Cc1sc2c(c1C)C(=O)CS(=O)(=O)N2C
  nt | -0.23
> COC(=O)CCC(=O)Nc1ccccc1
  -0.25 | 0.74
> COc1ccccc1OCc1nc(C#N)c(N2CC(C)CC(C)C2)o1 (stereo not given)
  -0.95 | 3

An excerpt of these results, as comma-separated lines.
Structure,AID504770,Ba CapD inh
Cc1sc2c(c1C)C(=O)CS(=O)(=O)N2C,nt,-0.23
COC(=O)CCC(=O)Nc1ccccc1,-0.25,0.74
